VDR inhibitor = inhibitors of human vitamin D receptor; P11473; VDR-SRC2-3 peptide fluorescence polarization, 2 h; Potency, µM, for inactives: max response, negative = inhibition, hits mostly inhibitors; 0.93% of 400,000 active; AID 504847; active = well fitted inhibition curve with a large enough effect; inconclusive = small, poorly fitted or top-dose-only effect, or another doubt; inactive = no such curve, though single readings can be large or run the other way; note: series mostly up to about 120 µM
Target sequence (P11473 whole entry, looked up): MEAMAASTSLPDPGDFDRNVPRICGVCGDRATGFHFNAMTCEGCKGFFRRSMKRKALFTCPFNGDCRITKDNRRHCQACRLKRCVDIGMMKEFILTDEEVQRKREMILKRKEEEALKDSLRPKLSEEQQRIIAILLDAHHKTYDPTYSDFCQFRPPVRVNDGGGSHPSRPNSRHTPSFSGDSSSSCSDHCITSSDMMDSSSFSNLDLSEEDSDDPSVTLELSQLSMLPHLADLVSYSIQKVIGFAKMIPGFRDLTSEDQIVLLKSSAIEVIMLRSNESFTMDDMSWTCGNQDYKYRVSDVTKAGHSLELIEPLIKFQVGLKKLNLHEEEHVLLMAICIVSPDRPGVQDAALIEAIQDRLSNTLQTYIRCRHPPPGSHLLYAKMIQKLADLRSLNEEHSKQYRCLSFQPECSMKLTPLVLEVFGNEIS
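The screen uses fluorescence polarization to detect compounds that interfere with recruitment of the SRC2-3 coactivator peptide to VDR; plates are read after 2 h at room temperature.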
Active calls of the source: *; u = inconclusive; & = joins results of further samples; [ ] = another dose, or the depositor's remark. % is set by controls: 0 for no effect and ±100 for the full control effect; potency is the fitted concentration of half-maximal effect. Only part of the results is shown; count on the stated rates, not on these rows.

SMILES	VDR inhibitor
Cc1nnc(SCC(=O)N2CCN(c3ccccc3F)CC2)n1C1CC1	-11%
CSc1ccc(C(=O)C2CCCN(C(=O)CCc3cnn(C)c3)C2)cc1 (stereo not given)	5%
O=C(CSc1nnc(-c2ccc(F)cc2)o1)N1CCCc2ccccc21	-17%
CC(=O)N1N=C(c2ccc3ccccc3c2)OC1(C)C	2%
COc1cc([N+](=O)[O-])cc2sc(NC(=O)c3c(F)cccc3F)nc12	1%
CNC(=O)CSc1nc2cc(S(=O)(=O)Nc3ccc(OC)cc3)ccc2o1	4%
O=C(CN1C(=O)NC2(CCCC2)C1=O)N1CCN(S(=O)(=O)c2cc(Cl)ccc2Cl)CC1	-17%
CSC1=NCCN1C(=O)c1ccc(S(=O)(=O)N2CCOCC2)cc1	-6%
O=C(CN1N=C(c2ccc(Cl)cc2)CCC1=O)NCCc1ccccc1	14%
O=C1CC(c2ccccc2)CC(=O)N1c1ccc(C(F)(F)F)cc1	-5%
Cc1ccc(N(CC(=O)NCCc2ccccc2C)S(=O)(=O)N(C)C)cc1	-2%
CCN(CC(=O)Nc1ccccc1OC)C(=O)CSCC(=O)Nc1ccc(OC)cc1	11%
CCc1nnc(NC(=O)CSc2nnc(C)n2Cc2ccccc2)s1	-12%
CCOc1ccc(NS(=O)(=O)c2ccc(NS(=O)(=O)c3cccs3)cc2)cc1	-3%
Fc1ccc(/C=N/n2cnn(Cc3ccccc3Cl)c2=S)cc1	u
Cc1ccc(Oc2ccc3c(c2)C(=O)N(c2cccc4cccnc24)C3=O)cc1	-2%
COc1ccc2nc(N3CCN(C(=O)CS(=O)(=O)c4ccc(C)cc4)CC3)sc2c1	5%
O=C(N/N=C/c1cccc(O)c1)c1cc(-c2ccccc2)nc2ccccc12	3%
Clc1ccccc1Cn1nnc(-c2cccs2)n1	2%
C=CCn1cc(C(=O)NCCCOCC)c(=O)c2cc(S(=O)(=O)N(CC)CC)ccc21	20%
CCOc1ccc(N(C(=O)c2ccccc2Cl)C2=NC(C)(C)CS2)cc1	-12%
Cc1c(C)n(Cc2ccccc2)c2ncnc(NCCCN(C)C)c12	-6%
CC(C)(C)N/N=C/c1c(O)n(-c2ccc(Cl)cn2)c(=O)c2ccccc12	-10%
O=C(COC(=O)COc1ccccc1)NCCc1ccccc1	9%
COc1ccc(OC)c(C2NC(=O)NC(C)=C2C(=O)OC2CCCCC2)c1 (stereo not given)	-18%
CC(=O)Oc1c(Sc2ccccc2[N+](=O)[O-])c(C)nn1C(C)(C)C	-28%
Nc1[nH]nc2nc(NCc3ccccc3)c3c(c12)CCN(Cc1ccccc1)C3	-12%
CN1CCN(C(=O)c2cc(Cl)cc(Cl)c2NC(=O)c2ccco2)CC1	-28%
O=[N+]([O-])c1ccc2c(c1)CNc1ccccc1O2	25%
Cc1ccc(-c2nc3sccn3c2Nc2ccccc2C)cc1	-12%
COc1c(OC(C)=O)ccc(/C=N\NC(=O)c2ccc(Br)cc2)c1[N+](=O)[O-]	u
CC(C)(O)CCC(C)(C)O	0%
Cn1c(=O)[nH]c(=O)c2c1nc(N1CCN(CCO)CC1)n2Cc1ccccc1	3%
O=C(c1ccccc1)c1ccc2ccccc2n1	12%
Cc1cc(C)c(NC(=O)CN2c3ccccc3S(=O)(=O)c3ccccc32)c(C)c1	11%
COc1ccc(NC(=O)C2CCCN2C(=O)NC2CCCCC2)c(OC)c1 (stereo not given)	7%
CCc1ccc(CNC(=O)C2CCCN(S(=O)(=O)N3CC(C)CC(C)C3)C2)cc1 (stereo not given)	7%
Cc1ccc(S(=O)(=O)N2CCCC2)cc1C(=O)NC1CCCCC1	-28%
COc1ccc(N=C2NC(=O)/C(=C/c3ccc(O)c(OC)c3)S2)cc1	7%
CCS(=O)(=O)N(C)[C@@H]1c2cc(C#N)ccc2OC(C)(C)[C@H]1O	15%&7%

Ordered by the number under VDR inhibitor (low to high): some entries from above.
SMILES	VDR inhibitor
CC(=O)Oc1c(Sc2ccccc2[N+](=O)[O-])c(C)nn1C(C)(C)C	-28%
COc1ccc(OC)c(C2NC(=O)NC(C)=C2C(=O)OC2CCCCC2)c1 (stereo not given)	-18%
Cc1ccc(-c2nc3sccn3c2Nc2ccccc2C)cc1	-12%
CC(C)(O)CCC(C)(C)O	0%
CCc1ccc(CNC(=O)C2CCCN(S(=O)(=O)N3CC(C)CC(C)C3)C2)cc1 (stereo not given)	7%
O=C(COC(=O)COc1ccccc1)NCCc1ccccc1	9%
O=[N+]([O-])c1ccc2c(c1)CNc1ccccc1O2	25%

Continuation.
SMILES	VDR inhibitor
OC(c1ccccc1)(c1ccccc1)C1CCN(C(=S)NCCc2ccccc2)CC1	-13%
Cc1cc(C)c2nc(SCc3ccc([N+](=O)[O-])cc3)nc(C)c2c1	7%
COc1cc(NC(=O)CSc2nnc(C)s2)cc(OC)c1	-3%
Nc1nc(SCc2ccccn2)c2ncn(C3OC(CO)C(O)C3O)c2n1 (stereo not given)	-8%
CC(C)CC1Nc2ncnc(N3CCCCC3)c2N(Cc2ccccc2)C1=O (stereo not given)	-2%
CCOc1ccc(NC(=O)c2ccccc2SC)cc1	u
CC1CCCN(C(=O)C2CCN(CCCc3ccccc3)CC2)C1 (stereo not given)	31%[activator]
Cc1cc(C(=O)NNC(=O)Cc2ccc(Cl)cc2)c(C)o1	1%
Fc1ccc(COc2ccccc2CNc2nn[nH]n2)cc1	-1%
COc1ccc(C(CNC(=O)COc2ccc(F)cc2Br)N2CCCC2)cc1 (stereo not given)	-17%
COc1ccc2cc3cc(C(=O)NCCN4CCN(Cc5ccccc5)CC4)oc3nc2c1	20%
CCS(=O)(=O)N1CCC(C(=O)NCc2ccc(F)cc2)CC1	-1%
O=C(O)COc1ccc(C(=O)c2ccccc2)cc1	-8%
Fc1ccc(C(CCNCc2ccccn2)c2ccc(Cl)cc2)cc1 (stereo not given)	-1%
O=C(O)COc1ccccc1/C=N/NC(=O)c1ccncc1	8%
CC(=O)N1c2ccc(S(=O)(=O)N3CCC(C(=O)Nc4cc(C)ccn4)CC3)cc2CC1C (stereo not given)	-3%
Cc1ccc(SCC(=O)NCC2COc3ccccc3O2)cc1 (stereo not given)	-29%
O=C(N/N=C/C=C/c1ccco1)c1ccccc1Cl	u
CCN1C(=O)[C@H]2[C@@H](c3ccc(C)cc3)N3C(=O)N(c4ccc(C)cc4)C(=O)[C@@]3(C)[C@H]2C1=O	-13%
CCn1c(SCC(=O)N/N=C/c2c[nH]c3ccccc23)nnc1-c1ccc(C(C)(C)C)cc1	6%
Cc1ccc(NC(=O)CSc2nc(-c3ccc(F)cc3)cc(C(F)(F)F)c2C#N)cc1	1%
CS(=O)(=O)NNC(=O)Cn1nnc(-c2cc(C(F)(F)F)cc(C(F)(F)F)c2)n1	-3%
CCC(C)[C@@H](C(=O)N1CCNCC1)n1cc(CCCCN)nn1 (stereo not given in full)	2%
Cn1c(SCc2cccnc2)nc2cccnc21	-2%
CC1CCC2(CC1)NC(=O)N(CC(=O)Nc1cc(S(=O)(=O)N3CCCC3)ccc1Cl)C2=O (stereo not given)	1%
CCN(CC)c1ccc(NC(=O)c2c(C)nn(-c3ccc(F)cc3)c2-n2cccc2)c(C)c1	-3%
COc1cccc(/C=C/C(=O)OCC(=O)Nc2ccc(N3CCOCC3)cc2)c1OC	19%
Clc1ccc(-c2nnc3sc(-c4ccc(Br)o4)nn23)cc1	-11%
Cc1cc(C)n(CC(=O)NCCC2=CCCCC2)n1	-2%
CCCS(=O)(=O)N1CCCC(C(=O)N2CCCCC2)C1 (stereo not given)	-4%
CCc1cccc(CC)c1NC(=O)CSc1nnc(C(C)C)n1CC	-20%
Nc1nc(NCc2ccco2)nc(NCCO)c1[N+](=O)[O-]	-8%
COCCCN(C(C)=O)c1nc(-c2ccc(OC)cc2)cs1	10%
Cc1cccc([C@@H]2[C@@H]3C(=O)N(Cc4ccccc4)C(=O)[C@@H]3[C@]3(C)C(=O)N(c4cccc(Cl)c4)C(=O)N23)c1	-1%
Cc1cccc(C(=O)OCC(=O)N2CCCCCC2)c1	2%
COc1cc(CCCN2CCNC[C@@H]2CC2CCCCC2)cc(OC)c1OC	-7%
Cc1c(NC(=O)C2CCCN(S(=O)(=O)c3cnc[nH]3)C2)c(=O)n(-c2ccccc2)n1C (stereo not given)	-12%
COC(=O)C1=C(C)N(CCCC(=O)O)C(=O)NC1c1ccc(OC)cc1 (stereo not given)	8%
COc1ccc(OCC(=O)NCCNC(=O)c2ccncc2)cc1	-4%
O=C(c1ccc(N2CN(C(=O)c3ccco3)c3nc4ccccc4nc32)cc1)N1CCOCC1	3%
Cc1ccc(S(=O)(=O)N2[C@@H](c3ccccc3)C(C(=O)O)=CC[C@H]2c2cccc(Cl)c2)cc1	-9%
C/C(=N\n1c(C)nc2ccccc2c1=O)c1ccc(C)o1	-5%
CCCC12CN3CCN(CC(C3)/C1=N\NC(=O)c1ccc(F)cc1)C2	-14%
CCN(CC(=O)NC1CCS(=O)(=O)C1)c1nc(-c2ccccc2)nc2ccccc12 (stereo not given)	-5%
COC(=O)c1cccc(NC(=S)Nc2cccc(Cl)c2Cl)c1	-14%
O=C(NC12CC3CC(CC(C3)C1)C2)c1ccc(-c2cccc(Cl)c2)o1	-6%
COc1ccc2cc(C3(C)NC(=O)N(CC(=O)NCc4ccco4)C3=O)ccc2c1 (stereo not given)	-1%
COCCNC(=O)c1c(CSc2ccccc2)noc1C(=O)NCc1ccccc1	-17%
CCOC(=O)N1CCN(S(=O)(=O)c2ccc(C)cc2)C1c1ccccc1 (stereo not given)	-3%
COC(=O)c1ccccc1NC(=O)COC(=O)c1ccccc1N=Nc1ccc(N(C)C)cc1	u
CC(SCc1ccccc1)C(=O)NN=C1CCN(C)CC1 (stereo not given)	9%
CCOC(=O)C1(CCOc2ccccc2)CCN(C(=O)CCSC)CC1	5%
Cc1ccc(Sc2c(C)nn(C(=O)c3ccc(Cl)cc3)c2C)cc1	4%
CCOC(=O)NC(Nc1ncccn1)(C(F)(F)F)C(F)(F)F	-6%
Cc1cccc(NC(=O)C2CCCN(S(=O)(=O)c3ccc4[nH]c(=O)ccc4c3)C2)n1 (stereo not given)	-15%
O=C(O)c1ccc(NCc2cccs2)cc1	-4%
O=c1c2ccccc2n(Cc2c(F)cccc2Cl)c(=O)n1Cc1ccccc1	-2%
O=C1CCSc2ccc(S(=O)(=O)Nc3ccc(Cl)c(C(F)(F)F)c3)cc2N1	12%
CCOC(=O)Cc1cnc(NC(=O)CSc2nc(N)cc(N)n2)s1	-3%
CC(=O)O[C@@H]1C(=O)[C@@]2(C)[C@H](O)C[C@H]3OC[C@]3(OC(C)=O)[C@@H]2[C@H](OC(=O)c2ccccc2)[C@@]2(O)C[C@H](OC(=O)[C@@H](O)[C@@H](NC(=O)c3ccccc3)c3ccccc3)C(C)=C1C2(C)C (stereo in doubt)	4%

Compounds shown so far containing a CF3 group:
SMILES	VDR inhibitor
O=C1CC(c2ccccc2)CC(=O)N1c1ccc(C(F)(F)F)cc1	-5%
Cc1ccc(NC(=O)CSc2nc(-c3ccc(F)cc3)cc(C(F)(F)F)c2C#N)cc1	1%
CS(=O)(=O)NNC(=O)Cn1nnc(-c2cc(C(F)(F)F)cc(C(F)(F)F)c2)n1	-3%
CCOC(=O)NC(Nc1ncccn1)(C(F)(F)F)C(F)(F)F	-6%
O=C1CCSc2ccc(S(=O)(=O)Nc3ccc(Cl)c(C(F)(F)F)c3)cc2N1	12%

(cont.)
SMILES	VDR inhibitor
COc1cc(C(=O)Nc2ccc3oc(-c4ccccc4)nc3c2)cc(OC)c1OC	-15%
CC(C)(Oc1ccc([C@@H]2CC2(Cl)Cl)cc1)C(=O)O	-3%
COc1ccccc1/C=C/c1ccc2cccc(O)c2n1	-21%
CCc1ccccc1NC(=O)Nc1cc(C(=O)NCc2ccc(OC)cc2)ccc1N1CCCC1	-6%
Cc1cccc(OCC(=O)Nc2cccc(C(=O)OCc3cc(=O)n4nc(C(C)C)sc4n3)c2)c1	8%
O=C(O)c1cc(S(=O)(=O)N2CCN(C(c3ccccc3)c3ccccc3)CC2)ccc1Cl	1%
S=C(NCCc1ccccc1)N/N=C/c1ccc(Cl)cc1	8%
O=C(Cn1c(-c2cncs2)nc2ccccc21)NCCc1ccccc1	-12%
CCc1ncc(C(O)c2cccc3ccccc23)n1C (stereo not given)	-13%
COc1cc(NC(=O)CSc2nc3nc(C)c(Cc4ccccc4)c(C)n3n2)cc(OC)c1	2%
CC(C)(C)c1cc(CN2CCC(O)CC2)cc(C(C)(C)C)c1O	4%
OC1CCN(c2ncnc3nc[nH]c23)CC1	-13%
Cc1nn2c(COc3ccc(NC(=O)C(C)C)cc3)nnc2c2ccccc12	u
CCOc1cccc(OCCCCN2CCCCC2)c1	4%
O=c1c2nnn(Cc3ccccc3)c2ncn1-c1ccccc1	12%
CSc1ccccc1NC(=O)CN(C)C(C)C(=O)NCc1ccc2c(c1)OCO2 (stereo not given)	-26%
Cc1ccc(C)c(N(C(=O)c2nsc(Cl)c2Cl)C(C(=O)NC2CCCC2)c2ccc(O)cc2)c1 (stereo not given)	-9%
CC(C)C(NC(=O)c1ccccc1)C(=O)N1CCN(C/C=C/c2ccccc2)CC1 (stereo not given)	-2%
COC(=O)CN(c1ccccc1)S(=O)(=O)c1ccc(F)cc1	6%
CCOCCC(=O)Nc1nnc(CCc2ccccc2)s1	-18%
COc1ccc2c(c1)c(=O)c(S(=O)(=O)c1ccc(Cl)cc1)cn2Cc1cc(C)ccc1C	2%
NC(=O)CCn1cnc2ccccc21	0%
Cc1cccc(NC(=O)c2ccc(C(=O)Nc3cccc(C)c3)nc2)c1	-3%

Bioassay records: PubChem BioAssay, National Center for Advancing Translational Sciences (NCATS)
